KCNQ2 block – KCNQ2 channel blockers in CHO-K1 cells – cell-based, FluxOR thallium flux, B-score, primary screen (AID 2156) | O88943 | 20 min; active compounds read low; only compounds with negative scores are shown here; some inactives read as strong as hits | B-score at 10 µM | 310,000 compounds, 1.1% hits;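 active means fluorescence ratio B-score at most minus 3 library SDs, with starting brightness B-score within 2 library SDs, cut at about -5.5 in these data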
Target sequence (O88943 whole entry, looked up): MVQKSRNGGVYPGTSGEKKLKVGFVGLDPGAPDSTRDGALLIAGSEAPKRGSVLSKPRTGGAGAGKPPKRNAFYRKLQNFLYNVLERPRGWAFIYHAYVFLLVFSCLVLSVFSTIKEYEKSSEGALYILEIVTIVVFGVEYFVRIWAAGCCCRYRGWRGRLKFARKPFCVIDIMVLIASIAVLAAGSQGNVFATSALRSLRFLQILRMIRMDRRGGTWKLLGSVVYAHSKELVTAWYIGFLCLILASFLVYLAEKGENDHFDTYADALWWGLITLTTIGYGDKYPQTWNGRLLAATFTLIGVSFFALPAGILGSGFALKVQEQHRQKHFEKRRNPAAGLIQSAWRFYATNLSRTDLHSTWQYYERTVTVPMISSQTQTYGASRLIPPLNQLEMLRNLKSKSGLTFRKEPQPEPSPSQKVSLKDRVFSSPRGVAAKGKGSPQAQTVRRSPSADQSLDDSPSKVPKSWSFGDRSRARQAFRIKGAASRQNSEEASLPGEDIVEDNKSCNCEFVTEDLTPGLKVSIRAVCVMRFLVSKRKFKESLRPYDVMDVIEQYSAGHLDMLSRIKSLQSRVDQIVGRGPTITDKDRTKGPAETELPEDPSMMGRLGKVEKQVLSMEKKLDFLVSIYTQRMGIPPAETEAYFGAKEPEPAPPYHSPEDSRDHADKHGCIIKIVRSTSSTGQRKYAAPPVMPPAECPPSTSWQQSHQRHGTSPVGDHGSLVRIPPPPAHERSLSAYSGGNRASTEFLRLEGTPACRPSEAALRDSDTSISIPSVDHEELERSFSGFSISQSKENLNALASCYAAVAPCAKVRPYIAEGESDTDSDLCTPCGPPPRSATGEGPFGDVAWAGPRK
KCNQ2 block baseline – further read-out of KCNQ2 block, marked with its call; B-score; measured here: initial fluorescence intensity artifact check;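 brightness before thallium and not channel activity; 0 = typical well and far values either way flag optical interference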
Starred values were filed as active, the others as inactive; i = inactive. Not all compounds are listed; the hit share may differ from the screen's.

Screens in order: KCNQ2 block, KCNQ2 block baseline
CCC(C(=O)NC1CCCC1)N(C(=O)Cn1nnc(-c2ccc(OC)c(OC)c2)n1)C1CCCCC1 (configuration not stated)
→ i, 1
O=C(CCn1ccc2cc(S(=O)(=O)N3CCCC3)ccc21)NCc1ccccc1F
→ i, 0.42
COC(=O)c1ccc(OC(=O)C2CSC3(C)CCC(=O)N23)cc1 (configuration not stated)
→ i, -0.04
CCNC(=O)CC1C(=O)N(C)C(=S)N1NC(=O)c1ccc(Cl)cc1 (configuration not stated)
→ i, 2
CCOC(=O)N1CCC(NC(=O)c2cc(C(=O)Nc3ccc(S(=O)(=O)N4CCOCC4)cc3)ccc2CO)CC1
→ i, 1.6
O=C(Cn1c(NCCCO)nc2ccccc21)c1cccs1
→ i, 0.54
Cc1ccc(C(=O)NCC(=O)NNC(=O)CN(C)S(=O)(=O)c2ccc(Cl)cc2)s1
→ i, 0.69
COC(=O)c1sccc1NC(=S)N1CCN(c2ccc(F)cc2)CC1
→ i, -1.6
CCc1ccc(NC(=O)c2noc(C(C)C)c2[N+](=O)[O-])cc1
→ i, 0.23
Cc1ccc(NC(=O)CCc2nnc3ccc(N4CCC5(CC4)OCCO5)nn23)cc1F
→ i, -1
Oc1oc(-c2ccc(Br)cc2)nc1/C=N/c1ccccn1
→ i, 1.1
CC(=O)Nc1ccc(S(=O)(=O)NCCC(=O)NCc2ccncc2)cc1
→ i, 0.32
O=C(c1cc2ccccc2oc1=O)N1CCN(Cc2ccc3c(c2)OCO3)CC1
→ i, -0.47
COc1ccc2[nH]c(=O)c(CN(CC3CCCO3)C(=S)Nc3ccc(C)cc3)cc2c1 (configuration not stated)
→ i, 1.4
Cn1c(NCc2cccc(Br)c2)nc2ccccc21
→ -9*, 3.2*
COCCCn1c(Cc2csc(Nc3cccc(Cl)c3)n2)nnc1SCC(=O)OC
→ i, -1.4
Cc1cccc(NC(=O)CSCC(=O)Nc2ccc(S(=O)(=O)N3CCOCC3)cc2)c1
→ i, 1.5
CCOC(=O)c1ccc(S(=O)(=O)NNC(=O)c2cccc(N(C)C)c2)cc1
→ i, -0.18
COc1ccc(OCCSc2nnc(C(C)NC(=O)c3ccccc3F)n2C)cc1 (configuration not stated)
→ i, -0.97
CNC(=O)c1cn(-c2ccc(Cl)cc2)c(=O)c2ccccc12
→ i, -1
CSCC(C)N1CCC(CO)(CCc2ccccc2)CC1 (configuration not stated)
→ i, -1.9
FC(F)(F)c1cccc(CON=C2CCN(c3ncc(C(F)(F)F)cc3Cl)CC2)c1
→ i, 0.05
COc1cccc(OC)c1C(=O)Nc1ccc(C)cc1C(=O)c1ccccc1
→ i, -0.75
COc1ccc(CCC(=O)Nc2ccc3c(c2)OCO3)cc1OC
→ i, -0.99
COc1cccc(NC(=O)c2ccccc2Br)c1
→ i, 0.54
O=C(CSCc1ccc(Br)cc1)NCCc1ccccc1
→ -5.5*, 0.3*
O=C(NC1CCN(Cc2ccccc2)CC1)c1ccccc1OCc1ccccc1Cl
→ i, -1.7
CCc1ccc(N(CC(=O)NC(C)C)C(=O)CCC(=O)Nc2ccccn2)cc1
→ i, -0.48
Cc1onc(-c2ccccc2Cl)c1C(=O)N(Cc1nc(-c2ccccc2)no1)C1CCCCC1
→ i, 1.7
O=C(COC(=O)c1cnccn1)Nc1cccc2ccccc12
→ i, 4.5
Cc1ccc(NC(=O)c2cc([N+](=O)[O-])ccc2NCc2cccnc2)cc1
→ i, 0.2
O=C1NCCCC1C(=O)N/N=C/c1cccc([N+](=O)[O-])c1 (configuration not stated)
→ i, 1.1
O=C(CCn1c(=S)oc2ccccc21)Nc1cccc(O)c1
→ i, 0.58
CC(C)(C)NC(=O)c1ccc(NC(=O)c2ccccc2-c2ccccc2C(=O)O)cc1
→ i, -0.28
COc1ccc(-c2cc(C(=O)N(C)Cc3cccc(OC)c3OC)c3ccccc3n2)cc1OC
→ i, -2
C/C(=N\Nc1cc(C)nc(-c2ccccc2O)n1)c1ccccc1
→ i, -0.05
CC(C)CCc1noc(CN(CC2CCC2)CC2CCCO2)n1 (configuration not stated)
→ i, 1.8
CCOC(=O)c1cc(S(=O)(=O)Nc2ccc(F)cc2F)cn1C
→ i, 0.16
COC(=O)COc1c(Cl)cc(C(c2c(C)[nH][nH]c2=O)c2c(C)[nH][nH]c2=O)cc1OC
→ i, -0.59
COc1ccc(NC(=O)CSc2ccccc2)cc1S(=O)(=O)N1CCOCC1
→ i, 1.7
Cc1ccccc1NC(=O)c1c(-c2ccccc2)noc1C
→ -9.5*, 0.03*
NC(=O)c1cc2cc(Br)ccc2o/c1=N/NC(=O)c1cccc(F)c1
→ i, -0.64
Cc1sc2nc(SCC(=O)NCc3ccco3)n(CCc3ccccc3)c(=O)c2c1C
→ i, 0.21
Cc1nn(-c2ccccc2)c(C)c1/C=C1\C(=O)N(C)C(=S)N1C
→ i, -0.28
CCc1ccc(N(CC(=O)Nc2ccc(OC)cc2OC)S(C)(=O)=O)cc1
→ i, 0.45
C=CCc1cccc(OC)c1OCCOCCNCCO
→ i, 0.04
Brc1ccc(N=Nc2ccc3ccccc3n2)cc1
→ i, 0.45
CCOC(=O)c1ccc(NC(=O)NNC(=O)CCc2ccc(OC)cc2)cc1
→ i, -0.83
Cc1ccc(C(=O)/C=C/Nc2ccc(S(=O)(=O)Nc3cc(C)nc(C)n3)cc2)cc1
→ i, 0.03
O=C(CCC1CCCN(C(=O)c2ccc(F)c(F)c2)C1)N1CCN(c2ccccn2)CC1 (configuration not stated)
→ i, 0.4
COC(=O)N1C(=O)[C@](c2ccccc2)(C2CCCC2)N1C(=O)OC
→ i, 2.5
CC1=CC(=O)OC1Cc1ccncc1 (configuration not stated)
→ i, -2.4
COC(=O)CC1SCCNC1=O (configuration not stated)
→ i, 1.5
Cc1cc(C)cc(OCC(=O)OCC(=O)NCc2cccs2)c1
→ i, -2.6
CN1CCN(c2ccccc2NC(=O)COc2ccccc2)CC1
→ i, -1.3
CC(C)Oc1cccc(C(=O)C2CCCN(C(=O)c3noc4c3CCCC4)C2)c1 (configuration not stated)
→ i, 0.4
CC(=O)N1CCOc2ccc(S(=O)(=O)NCC3CCC(C(=O)Nc4ncccc4C)CC3)cc21 (configuration not stated)
→ i, -0.69
O=C(CCN1CCN(C(c2ccccc2)c2ccccc2)CC1)N/N=C/c1ccc(O)cc1
→ i, 0.12
COCCCn1c(C(=O)NCCC2=CCCCC2)cc2c(=O)n3cccc(C)c3nc21
→ i, -0.25
COC(=O)c1ccc(N2C(=O)C3C4C=CC(CC4)C3C2=O)cc1 (configuration not stated)
→ i, -0.42

(next part)
Screens in order: KCNQ2 block, KCNQ2 block baseline
CNC(=S)N(Cc1ccc(OC)cc1)C1CC(=O)N(c2ccc(OC)cc2)C1=O (configuration not stated)
→ i, 0.01
COC(=O)c1cc(C(=O)OC)cc(N2C(=O)CC(NNC(=O)c3ccc(C)cc3)C2=O)c1 (configuration not stated)
→ i, 3.6
Cc1[nH]c2c(C)cccc2c1CCNC(=O)c1ccc2c(c1[N+](=O)[O-])C(=O)c1ccccc1C2=O
→ i, 0.33
COC(=O)CCC(=O)OC1(C)C(=O)C2=CN(CCc3ccccn3)C(c3ccc(OC)cc3)=CC2=C(Br)C1=O (configuration not stated)
→ i, 0.34
O=C(CC1NCCNC1=O)OCc1ccccc1 (configuration not stated)
→ i, 2.8
COc1ccc(NC(=O)CN2CCC(n3c(C)nc4cc(F)ccc43)CC2)c(OC)c1
→ i, -0.22
CC(=O)c1ccc(S(=O)(=O)NCc2ccc(C(=O)N(C)CC(=O)Nc3cccc(F)c3)cc2)cc1
→ i, 0.38
Cc1[nH]c(C)c(S(=O)(=O)N2c3ccccc3CC2C)c1C(=O)N1CCCCC1 (configuration not stated)
→ i, -0.6
CC(/C=C/c1ccccc1)=N\Nc1nc2c(c(=O)[nH]c(=O)n2C)n1CCO
→ i, -0.46
Oc1cc2c(cc1C(c1ccc(Cl)c(Cl)c1)N1CCCC1)OCO2 (configuration not stated)
→ i, -0.58
O=c1c2ccccc2n2c(-c3cccc(Cl)c3)nnc2n1Cc1ccccc1
→ i, -0.22
COc1cc(NC(=O)CSc2nnnn2-c2ccccc2)cc(OC)c1OC
→ i, 0.58
Oc1cccc(C2c3[nH]c4ccccc4c3CCN2Cc2ccc3c(c2)CCO3)c1 (configuration not stated)
→ i, -1.4
Cc1ccc(/C(O)=C2\C(=O)C(=O)N(c3cc(C)on3)C2c2cccc(Cl)c2)cc1 (configuration not stated)
→ i, -1
N#CC1=C2SCN(Cc3ccco3)CN2C(=O)CC1c1cccc2ccccc12 (configuration not stated)
→ i, 1.4
CC(Nc1cc(C)cc(C)c1)=[N+](C)CCNS(=O)(=O)c1ccc(Cl)cc1
→ i, -0.44
Cc1ccccc1-n1c(SCc2c(C)noc2C)nnc1-c1cccnc1
→ i, 5.6
O=C(Nc1nc(-c2ccccc2)cs1)C1CCCCN1S(=O)(=O)c1ccccc1 (configuration not stated)
→ i, -2.1
O=C(Nc1nnc(-c2cccs2)o1)c1ccc(S(=O)(=O)N2CCOCC2)cc1
→ i, 0.06
CC(=O)C1C(c2ccc(Cl)cc2)c2c(n[nH]c2C)CC1(C)O (configuration not stated)
→ i, -1.1
CCN(CC)CCCn1c2c(c(SCC(=O)Nc3cccc(C)c3C)nc1=O)CCC2
→ i, 1.6
Cc1ccc(NC(=O)CCc2nnc3ccc(N4CCC5(CC4)OCCO5)nn23)nc1
→ i, 0.42
Cc1cccc(C(C)C)c1-n1nnnc1-c1ccccc1
→ i, 0.66
CCCN(CCC)C(=O)C1CCN(c2ccc(S(=O)(=O)N3CCOCC3)cc2[N+](=O)[O-])CC1
→ i, -0.55
Cc1noc2ncnc(Oc3ccccc3)c12
→ i, 1.7
N#CCCN1CCN(S(=O)(=O)c2ccc(S(=O)(=O)NC3CCCCC3)cc2)CC1
→ i, 3.2
Cc1ccc(NNC(=O)C(O)(c2cccc(C(F)(F)F)c2)c2cccc(C(F)(F)F)c2)cc1
→ i, -1.4
CC(C)OCCCn1c(-c2ccco2)nc2nc3ccccc3nc21
→ i, -0.25
Cn1nc(C(=O)NCc2ccccc2)cc1C(=O)NCc1ccccc1
→ i, 0.33
COc1ccc(Cl)cc1NC(=O)C(C)N1CCN(C/C=C/c2ccccc2)CC1 (configuration not stated)
→ i, -0.04

An excerpt of the results above:
Screens in order: KCNQ2 block, KCNQ2 block baseline
Cn1nc(C(=O)NCc2ccccc2)cc1C(=O)NCc1ccccc1
→ i, 0.33
COc1ccc(Cl)cc1NC(=O)C(C)N1CCN(C/C=C/c2ccccc2)CC1 (configuration not stated)
→ i, -0.04

Remaining list, next part.
Screens in order: KCNQ2 block, KCNQ2 block baseline
Cc1ccc2[nH]c(O)c(N=Nc3ccccc3C)c2c1
→ i, -1.5
COc1cccc(OCc2cc(C(=O)N3CCC(C(O)C(C)C)CC3)no2)c1 (configuration not stated)
→ i, 0.39
COc1ccc(C(=O)NC2CC(C)(C)Cc3c2cnn3-c2ccccc2C)c(OC)c1OC (configuration not stated)
→ i, -0.22
O=c1ccc(-c2ccc(S(=O)(=O)NCc3cccc(Br)c3)s2)n[nH]1
→ i, -0.05
CCOC(=O)c1[nH]c2ccc(Br)cc2c1NC(=O)CNC
→ i, 0.18
C=C(C)c1ccc(C(C)(C)NC(=O)N(Cc2ccccc2)Cc2ccco2)cc1
→ -6.9*, -2.4*
CC(=O)Nc1ccc(NC(C)=C(C#N)C#N)cc1
→ i, -0.95
COc1ccc(-c2sc(Nc3ccccc3)n[n+]2-c2ccc(F)cc2)c(OC)c1OC
→ i, -1.2
Clc1ccc(C2C3=C(Nc4ncnn42)c2ccccc2CC3)cc1 (configuration not stated)
→ i, -0.75
CC1CCN(C(=O)CSc2nnc(CNc3ccc(F)cc3)n2Cc2ccco2)CC1
→ i, 0.38
Cc1ccccc1CN1CCN(C(=O)c2ccc(F)cc2)CC1
→ i, -0.17
O=C(Cn1nc(CNc2ccc(Cl)cc2)[n+]2c1CCCCC2)c1ccc(Cl)cc1
→ i, -0.82
COc1cc(Nc2nc3ccccc3nc2NS(=O)(=O)c2ccc([N+](=O)[O-])cc2)cc(OC)c1OC
→ i, 0.7
C=CCN1C(=O)c2ccc(C(=O)NCCc3ccc(OC)c(OC)c3)cc2C1=O
→ i, 0.06
CC1=C(C(N)=O)C(c2ccccn2)n2nc(-c3ccccc3Cl)nc2N1 (configuration not stated)
→ i, 0.34
CC1=C(C(=O)OCC2CCCO2)C(c2cccc(O)c2)NC(=O)N1 (configuration not stated)
→ i, 0.21
O=C(COc1c(Br)cc(Br)c2cccnc12)N1CCc2ccccc2C1
→ i, -0.49
COCCCNC(=O)/C(C#N)=C/c1ccc(F)cc1
→ i, -1.2
CN(Cc1ccccc1)C(=O)c1ccc(NC(=O)c2ccccc2)cc1
→ i, -1.4
COc1cccc(CN2CC(C(=O)NCc3cccc(Cl)c3)CCC2=O)c1 (configuration not stated)
→ i, 0.46
Cc1cc(-c2ccccc2)nc(N/N=C/c2ccc(O)cc2O)n1
→ i, -0.3
CCn1c(-c2ccccc2Cl)nn(CC(=O)Nc2ccccc2OC)c1=S
→ i, 0.61
Cc1cc(Oc2ccc(=O)n(C)n2)nc(=S)[nH]1
→ i, -0.16
Cc1cc(N2CCN(S(=O)(=O)c3ccccc3)CC2)c2ccccc2n1
→ i, -0.95

Exported as labelled records: part of the list above.
COC(=O)c1sccc1NC(=S)N1CCN(c2ccc(F)cc2)CC1
  KCNQ2 block = i	KCNQ2 block baseline = -1.6
CCc1ccc(NC(=O)c2noc(C(C)C)c2[N+](=O)[O-])cc1
  KCNQ2 block = i	KCNQ2 block baseline = 0.23
Cc1ccc(NC(=O)CCc2nnc3ccc(N4CCC5(CC4)OCCO5)nn23)cc1F
  KCNQ2 block = i	KCNQ2 block baseline = -1
